From PubChem
Six1-Eya2 inh: inhibitors of human Six1/Eya2 interaction. Q15475+O00167. AlphaScreen GST-Six1/His-Eya2 binding, biochemical; active compounds read low; control for the full effect not named in the record. activity change, % (test concentration not listed). hit rate 0.56% among 360,000. AID 651725; in the data active = activity change below about -65%; inconclusive = about -30% to -65%; inactive = above about -30%; further: on the % scale 0 is the no-effect control and ±100 the full control effect
Target sequence (O00167 whole entry, looked up): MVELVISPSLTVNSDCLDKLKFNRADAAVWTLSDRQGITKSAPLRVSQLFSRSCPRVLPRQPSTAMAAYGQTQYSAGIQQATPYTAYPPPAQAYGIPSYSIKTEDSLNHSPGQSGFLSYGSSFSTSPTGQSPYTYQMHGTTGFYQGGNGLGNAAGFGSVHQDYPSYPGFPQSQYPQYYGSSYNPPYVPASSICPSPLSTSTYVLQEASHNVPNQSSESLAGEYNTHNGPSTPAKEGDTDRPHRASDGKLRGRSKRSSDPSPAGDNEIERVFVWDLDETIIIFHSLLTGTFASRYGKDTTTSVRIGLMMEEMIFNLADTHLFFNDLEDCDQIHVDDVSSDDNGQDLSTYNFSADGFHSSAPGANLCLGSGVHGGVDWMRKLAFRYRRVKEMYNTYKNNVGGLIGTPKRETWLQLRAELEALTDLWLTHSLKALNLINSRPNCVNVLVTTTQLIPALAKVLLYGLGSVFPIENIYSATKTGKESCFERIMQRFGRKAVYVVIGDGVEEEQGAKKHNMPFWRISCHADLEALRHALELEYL
Target sequence (Q15475 whole entry, looked up): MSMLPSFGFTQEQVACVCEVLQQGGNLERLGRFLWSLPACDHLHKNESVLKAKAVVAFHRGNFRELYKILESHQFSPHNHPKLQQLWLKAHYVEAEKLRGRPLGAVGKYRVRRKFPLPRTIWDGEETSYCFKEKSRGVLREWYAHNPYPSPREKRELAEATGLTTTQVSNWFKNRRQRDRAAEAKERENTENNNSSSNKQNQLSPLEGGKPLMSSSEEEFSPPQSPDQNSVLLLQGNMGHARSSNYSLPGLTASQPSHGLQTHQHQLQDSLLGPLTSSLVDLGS
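Six1/Eya2 binding was read as AlphaScreen signal after compounds were pinned into GST-Six1 plus His-tagged Eya2 (5X stock 250/500 nM) in pH 8.0 Tris/NaCl/TCEP buffer, beads added, then incubated 1 h, 37 C, dark.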
D2 agonist: human D2 receptor agonism in beta-arrestin assay | hit rate 0.084% among 360,000 | activation, % (no concentration beside the values) | DiscoveRx PathHunter D2 beta-arrestin, luminescence, 90 min; 100% = 57 uM dopamine signal | P14416 | AID 624465; in the data active = activation above about 40%; inconclusive = about 15% to 40%; inactive = below about 15%; further: compound concentration not given in the record; the text of the record calls up to 30% inactive
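DiscoveRx PathHunter D2 beta-arrestin cells (2,100/well) attached overnight, then compound-stimulated 90 min at 37 C in HBSS/10 mM HEPES/0.1% Tween-20 buffer; beta-galactosidase complementation read by luminescence after 1 h at ambient temperature. Dopamine 57 uM final (EC100) as control.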
gsp agonist: activates gsp, the McCune-Albright syndrome mutation; gsp mutant cells, cAMP HTRF, 30 min; control for the full effect not named in the record; AID 624287; hit rate 0.13% among 340,000; Potency, µM (titrated, usually from 76.9 µM), for the others: top-dose activation (cAMP increase), hits mostly activators; active = well fitted activation curve with a large enough effect; inconclusive = small, poorly fitted or top-dose-only effect, or another doubt; inactive = no such curve, though single readings can be large or run the other way; cell line not stated here;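 further: phosphodiesterase inhibitor Ro 20-1724 added with compounds to block cAMP breakdown; potency means the concentration at half of the fitted maximal effect; nearly all actives have a fitted effect of over 60% in size; about a fifth of the inactives were tested at one dose only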
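Cells in DMEM/10% FBS with G418 were pretreated with compounds in DMSO plus […] (300 uM stock) for 30 min at 37C. cAMP was measured by HTRF (cAMP-d2 plus anti-cAMP antibody-K) after 30 min at room temperature.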
D2 PAM: potentiates the human D2 dopamine receptor allosterically | hit rate 0.23% among 360,000 | potentiation, % (concentration not given with the values) | DiscoveRx D2 beta-arrestin cells, luminescence, 90 min; 100% = 57 uM dopamine signal; active = potentiation of 50% or more; inconclusive = 30% to 50%; inactive = 30% or less;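 further: compound concentration not given in the record; tested on top of an EC20 dose of dopamine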
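PathHunter D2 cells, attached overnight at 37 deg C, received compound in DMSO plus dopamine at EC20 (50 nM final) for 90 min at 37 deg C. Beta-arrestin recruitment was read as luminescence after 1 h with detection reagent at ambient temperature.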
CtBP-E1A inh: CtBP/E1A binding inhibition; AlphaScreen GST-E1A/His-CtBP binding, 1536-well; active compounds read low; control for the full effect not named in the record; activity change, % (concentration not given with the values); hit rate 0.49% among 340,000; AID 651724; in the data active means activity change below about -65%; inconclusive means about -30% to -65%; inactive means above about -30%; further: on the % scale 0 is the no-effect control and ±100 the full control effect
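GST-E1A and His-tagged CtBP (125 nM each as 5X stock) were preincubated with pin-transferred compound for 2 h at 37 °C in the dark, then glutathione donor and nickel acceptor beads were added for 1 h before AlphaScreen reading.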
gsp antag: antagonizes gsp, the McCune-Albright syndrome mutation; hit rate 0.4% among 340,000; Potency, µM (series often up to 76.9 µM), for the others: at the highest dose activity change, negative = inhibition, hits mostly inhibitors; AID 624288; gsp-mutant cells, cAMP HTRF, 30 min; control for the full effect not named in the record; active = falling curve of any shape with a large fitted effect; inconclusive = falling curve, mostly with a smaller effect; inactive = flat or rising curve; cell line not stated here;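 further: intracellular cAMP measured with PDE inhibitor Ro 20-1724 present during compound exposure; potency means the concentration at half of the fitted maximal effect; on the % scale 0 is the no-effect control and ±100 the full control effect; nearly all actives have a fitted effect of over 65% in size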
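HTRF cAMP measurement after 30 min RT detection following 30 min, 37C compound treatment alongside […] (added as 300 uM solution) in G418-selected cells seeded at 2000/well and grown 16–24 h.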
Numbers without * were called inactive; ? = inconclusive; nt = not tested or not shown; & = joins results of further samples; [ ] = another dose, or the depositor's remark.

SMILES	Six1-Eya2 inh	D2 agonist	gsp agonist	D2 PAM	CtBP-E1A inh	gsp antag
NC(=S)Nc1ccc(C(F)(F)F)cc1Cl	4	-12	4%[15.4 µM]	-7	-2	4%
CC(C)c1ccc(OCC(O)CN2CCN(c3ccccc3)CC2)cc1 (stereo not given)	-20&-14	?	6%&0%	-8&-23	-16&-15	5%&-1%
Cc1ccc(C=C2C(=O)c3ccccc3C2=O)o1	-24	-3.7	6%	4	-11	12%
Cc1ccc2nc(C)c3c(c2c1)COC3	-1	-1.3	-4%[15.4 µM]	8	-4	13%
Cc1ccccc1-c1nnn(CC(=O)Nc2cccc(S(N)(=O)=O)c2)n1	-3	-0.7	0%[15.4 µM]	-4	0	15%
O=[N+]([O-])c1ccc(NCCc2ccccc2)c(Br)c1	-1	-5.1	10%	-8	nt	-16%
CSCCC(NC(=O)c1ccccc1Cl)C(=O)NNC(=O)c1ccccc1O (stereo not given)	-2	-0.5	-1%	-12	-5	-2%
Cc1ccc(NC(=O)CCc2nnc3ccc(NCc4ccco4)nn23)cc1	-9	?	?	-1	-7	-4%
S=C(NCc1cccs1)Nc1cc(Cl)cc(Cl)c1	2	-3.3	2%	-18	9	?
NS(=O)(=O)c1ccc(N2N=C(c3ccccc3)CC2c2ccccc2Cl)cc1 (stereo not given)	27	-4.4	nt	-5	-4	-5%
COc1ccccc1-c1nnc(SCC(=O)c2c(N)n(C3CC3)c(=O)[nH]c2=O)o1	1	-3.7	12%	-2	nt	-6%
Cc1cccc(C)c1Nc1nnc(SCc2cn3cccc(C)c3n2)s1	-20	-4.5	-1%	-6	nt	72%[activator]
CN(C)CCN(Cc1ccccc1)C(=O)C1CCN(c2ncnc3c2nc2n3CCCCC2)CC1	-1	-8.8	?	-39	-4	3%
O=C(CCCn1nnnc1CN1CCOCC1)N1CCN(c2ccccc2F)CC1	2	-1.1	1%	-22	-4	5%
Cc1ccccc1N=C/C=C1/C=C(c2ccccc2)OC(C)(C)O1	-19	-2.0	20%	-8	3	-15%
O=C(Nc1ccc(S(=O)(=O)Nc2nccs2)cc1)c1ccccc1OC(F)F	0	3.7	-3%	-1	0	-19%
COc1ccccc1C(=O)Nc1c(-c2ccccc2)nc2ccccn12	-10	-4.3	-13%	0	4	0%
Nc1nc(CSCCO)nc(Nc2ccccc2)n1	1	-1.6	16%	0	2	13%
CN(C)c1nc(N)nc(CSc2ncc(Cl)cc2Cl)n1	-1	-0.6	-3%	-8	0	-16%
COc1ccccc1-c1c(C)nn2c(-c3ccccc3)cc(C)nc12	14	-0.7	?	-4	-7	-14%
CCN(CC)C(=O)CSCC(=O)Nc1ccccc1	5	1.8	-9%	-8	19	3%
COc1ccc(NC(=O)CCCC(=O)O)cc1Cl	14	-2.6	8%[15.4 µM]	-7	8	-2%
CCN1CCN(c2ccc(S(=O)(=O)N3CCOCC3)cc2NC(=O)c2ccccc2OC(F)F)CC1	6	-0.5	9%[15.4 µM]	-1	-3	2%
Cc1ccc(O)c(C(=O)c2cc(C#N)c(=O)n(-c3c(C)n(C)n(-c4ccccc4)c3=O)c2)c1	-10	-2.7	?	15	-7	-14%
COCCN(C(=O)CCC(=O)Nc1nccs1)C(C(=O)NCCC(C)C)c1ccc(OC)cc1 (stereo not given)	3	1.4	-23%	-2	2	3%

Full records, looked up by structure. Values in the order: Six1-Eya2 inh	D2 agonist	gsp agonist	D2 PAM	CtBP-E1A inh	gsp antag
CN(C)CCN(Cc1ccccc1)C(=O)C1CCN(c2ncnc3c2nc2n3CCCCC2)CC1 as listed: -1	-8.8	?	-39	-4	3%
Cc1ccc(NC(=O)CCc2nnc3ccc(NCc4ccco4)nn23)cc1 as listed: -9	?	?	-1	-7	-4%

(next part)
SMILES	Six1-Eya2 inh	D2 agonist	gsp agonist	D2 PAM	CtBP-E1A inh	gsp antag
Cc1ccc2cc(CN(C(=O)c3cccs3)c3ccccc3)c(=O)[nH]c2c1	14	-0.2	-18%[15.4 µM]	-6	0	-8%
Cc1ccc(-c2[nH]nc(N)c2N=Nc2ccccc2C)cc1	-18	-1.5	19%	-21	-22	-13%
CCN(CC)CCOC(=O)C1c2ccccc2Oc2ccccc21	-1	0.0	-12%	-29	11	-1%
Cc1sc(NC(=O)c2ccccc2)c(C(c2ccc(Cl)cc2)N2CCN(CCO)CC2)c1C (stereo not given)	-24	-1.1	-31%[inhibitor]	-18	-13	-18%
Cc1ccc(-c2noc(C3CCN(S(C)(=O)=O)CC3)n2)o1	2	1.9	6%	1	9	4%
Cc1ccccc1NC(=O)CC(O)(C(F)(F)F)C(F)(F)F	-2	0.8	2%	-7	-1	-9%
O=c1cc(-c2ccccc2)nc2cc(-c3ccco3)[nH]n12	-11	-1.7	-43%[inhibitor]	23	nt	2%
CCOC(=O)[C@@H](C)N(C(=O)OC(C)(C)C)S(=O)(=O)N(Cc1ccccc1)[C@H](C(=O)OC)C(C)C	6	-0.2	nt	-8	5	-3%
CCOc1ccc(S(=O)(=O)N2CCN(C(=O)c3ccccc3Cc3ccccc3)CC2)cc1	0	1.1	-11%	0	7	?
CCc1ccc(-n2ccc(=O)c(C(=O)O)n2)cc1	11	-2.6	13%	2	0	-7%
CC1CC(C)CN(C(=O)C(Cc2ccccc2)n2cccc2)C1 (stereo not given)	-6	0.2	17%[15.4 µM]	0	-2	-5%
O=c1c2ccccc2nc2c3ccccc3c(NCc3ccccn3)nn12	?	-3.5	10%	-1	-69*	-25%
CC1CCN(C(=O)c2[nH]cnc2C(=O)N[C@@H](CCCCNC(=O)OC(C)(C)C)C(=O)OC(C)(C)C)CC1	18	3.2	nt	-5	7	4%
CN1C(=O)C(C)(C)c2cc(S(=O)(=O)N3CCCC3C(=O)NCc3ccccc3Cl)ccc21 (stereo not given)	8	-3.6	1%	0	6	?
Cc1csc(NC(=O)c2sccc2C)n1	4	-4.3	-46%[inhibitor]	-3	1	-4%
C=CCn1c(SCC(=O)NCC(=O)OCC)nnc1-c1cccc(OC)c1	9	-1.3	-24%	19	7	0%
CN(C)S(=O)(=O)c1ccc(Cl)c(NC(=O)C2CCN(S(=O)(=O)c3cccs3)CC2)c1	-2	-1.5	0%	-5	-7	-11%
Cc1ccc(C)c(Cn2nnc3c(=O)[nH]c(C4CCCN(S(=O)(=O)Cc5ccccc5)C4)nc32)c1 (stereo not given)	7	2.6	-34%[inhibitor]	-4	10	10%
CCN(CC)S(=O)(=O)c1ccc(NC(=O)CCN2C(=O)C3CC=CCC3C2=O)cc1 (stereo not given)	20	1.4	-56%[inhibitor]	-1	nt	7%
COc1ccc(C(O)c2nc(-c3cccc(CO)c3)cs2)cc1 (stereo not given)	6	-3.7	nt	-8	2	nt
COc1ccc(OCCCC(=O)NC(C)c2ccccc2)cc1 (stereo not given)	23	-4.4	1%	-8	0	-4%
COc1ccccc1CCNC(=O)C1CCN(C(=O)/C=C/c2ccccc2)CC1	6	2.1	0%	-2	9	-8%
CC(=O)C1=C(O)C(=O)N(c2ccccn2)C1c1ccc(C)cc1 (stereo not given)	4	-1.9	-4%[15.4 µM]	-7	2	-23%
CCCOc1ccc([C@@H]2C3CN(C(=O)OCC)CC=C3C(C#N)=C(N)C2(C#N)C#N)cc1OC (stereo not given in full)	-2	-2.6	20%	-21	-3	-11%
O=C(OCc1ccc([N+](=O)[O-])cc1)C1CC(=O)N(CCc2ccccc2)C1 (stereo not given)	-1	-0.7	-6%[15.4 µM]	-20	-20	5%

An excerpt from above in order of length of the SMILES, descending:
SMILES	Six1-Eya2 inh	D2 agonist	gsp agonist	D2 PAM	CtBP-E1A inh	gsp antag
Cc1ccccc1NC(=O)CC(O)(C(F)(F)F)C(F)(F)F	-2	0.8	2%	-7	-1	-9%
CCc1ccc(-n2ccc(=O)c(C(=O)O)n2)cc1	11	-2.6	13%	2	0	-7%
Cc1csc(NC(=O)c2sccc2C)n1	4	-4.3	-46%[inhibitor]	-3	1	-4%

Next entries
SMILES	Six1-Eya2 inh	D2 agonist	gsp agonist	D2 PAM	CtBP-E1A inh	gsp antag
CCN(CC(=O)NC)S(=O)(=O)c1ccc(C)cc1	11	2.3	-2%	-1	3	7%
COc1ccc(/C=N/NC(=O)c2[nH]ncc2Br)c(OC)c1	-8	-2.0	-51%[inhibitor]	-3	0	-5%
Cc1onc(-c2ccccc2)c1C(=O)NCc1ccccc1F	2	-3.8	-13%[15.4 µM]	-7	14	10%
CC1(C)CC(=O)/C(=C(\O)c2ccccc2)C(=NCCc2ccccc2)C1	-6	1.1	-3%	11	0	1%
O=P(Cc1cccc[n+]1[O-])(c1ccccc1)c1ccccc1	5	0.3	-57%[inhibitor]	2	7	9%
O=C(NOCc1ccccc1)OCc1ccccc1	11	0.0	nt	nt	-4	10%
C=CCn1c(C)nnc1SCC(=O)c1c(N)n(C2CC2)c(=O)[nH]c1=O	9	-4.4	-32%[inhibitor]	-6	7	-5%
N#Cc1ccccc1Cn1c(=O)n(Cc2ccc(C(=O)NCc3ccco3)cc2)c(=O)c2sccc21	-7	-3.3	-11%	3	-4	-12%
COc1cccc(CNc2nn[nH]n2)c1OC	-7	-2.7	-10%	-25	-2	1%
Cc1c(NC(=O)C23CC4CC(CC(C4)C2)C3)c(=O)n(-c2ccccc2)n1C	1	0.3	9%	-7	nt	0%
CCn1c(CC(=O)Nc2ccc(C)cc2)nnc1SCC(=O)Nc1nc(C)cs1	1	-3.0	-10%	0	6	13%
COc1cc(CNc2ncnc3c2ncn3[C@H]2CN(CCN3CCOCC3)C[C@@H](CO)O2)cc(OC)c1OC	2	-4.9	nt	-6	12	nt
Cc1cc(Br)cn2c(Cc3ccsc3)c(C(C)(C)C)nc12	0	-1.5	nt	-3	-2	nt
COc1ccc(CC(=O)Nc2ccc(-c3cn4ccc(C)cc4n3)cc2)cc1	3	-1.3	6%	-11	0	-10%
C/C(=C\C(=O)c1ccc(C)o1)Nc1ccc2c(c1)OCO2	-11	-1.2	-4%	1	-11	-14%
COCc1cc(=O)c2ccccc2o1	1	-3.6	?	-2	8	10%
COC(=O)CCCC1=CC2=C(c3ccccc3)C(=O)C(C)(OC(=O)C3CCCC3)C(=O)C2=CN1c1ccccc1 (stereo not given)	-17	-1.7	nt	-4	-2	-1%
CSCCC(NC(=O)c1ccccc1Br)C(=O)N1CCN(C(C)=O)CC1 (stereo not given)	8	-0.9	-9%	-1	7	2%
O=C(O)CC1C(=O)OCN1C(=O)OCc1ccccc1 (stereo not given)	-6	-0.8	1%	12	-12	3%
C[C@@H](OC(=O)c1[nH]cnc1C(=O)NCc1ccc(CNC(=O)OC(C)(C)C)cc1)c1ccccc1	-3	2.1	-21%	1	-1	?
CC1CCCCN1C(=O)c1cccc(NC2=C(Cl)C(=O)N(Cc3ccccc3)C2=O)c1 (stereo not given)	-2	-3.4	-5%	-7	nt	28µM*
CCn1cc(C(=O)NCCN(C)C)c(=O)c2cc(F)c(N3CCN(C)CC3)cc21	-22	-0.9	1%[15.4 µM]	-7	-14	8%
